Ecoli rRNA inh = inhibitors of bacterial rRNA selective over humanized ribosomes; AID 720706; GFP signal change (wild-type ribosome), % (concentration not given with the values); E. coli WT GFP vs humanized-ribosome RFP mutants, fluorescence, 24 h; stronger effect = lower value; DMSO median 0, no signal -100; hit rate 1.6% among 350,000;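 active means significant combined selectivity score with lowered wild-type GFP, culture density cut under 30%, mutant RFP and density less affected; inactive means any of these conditions unmet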; further: one replicate is shown; some compounds called inactive have numbers as strong as hits
Ecoli rRNA inh OD600 = recorded beside Ecoli rRNA inh, whose call it bears; OD600 change, %; measured here: OD600 growth;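 optical density of the mix in the first replicate; 0 = DMSO median and -100 = no signal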
Ecoli rRNA inh RFP = second read-out of Ecoli rRNA inh, no call of its own (marks repeat the call); RFP signal change, %; measured here: RFP humanized mutant strains;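 first replicate; 0 = DMSO median and -100 = no signal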
* hit, by the source's call; & = joins results of further samples. This is a subset; rates above refer to the full screens.

Ecoli rRNA inh	Ecoli rRNA inh OD600	Ecoli rRNA inh RFP	SMILES
-37.8	-60.6	5.3	C[C@H]1CN([C@@H](C)CO)S(=O)(=O)c2ccc(-c3ccccc3)cc2O[C@@H]1CN(C)Cc1cccnc1
-2.1	-3.6	3.3	C[C@H]1CCCCO[C@H](CN(C)Cc2ccc(Cl)c(Cl)c2)[C@@H](C)CN([C@@H](C)CO)C(=O)c2cc(NC(=O)c3ccccc3)ccc2O1
6.0	12.8	-3.1	COc1ccc2c3c(n(C)c2c1)[C@@H](CO)N(C)CC31CN(C(=O)NC(C)C)C1
-53.8	-77.5	-9.5	N#CC(c1ccccc1)C(CC(=NO)c1ccccc1)c1ccccc1 (stereo unspecified)
-3.5	10.2	0.2	COc1ccc(-c2ccc([C@@H]3[C@@H](CO)N4C(=O)CN(C(=O)C5CC5)C[C@@H]34)cc2)cc1
-0.2	-2.2	-1.5	COc1ccc(-c2cnc3c(c2)C(=O)N([C@@H](C)CO)C[C@H](C)[C@H](CN(C)C(=O)C2CC2)O3)cc1
1.7	-7.0	1.9	CC(C)CC#Cc1ccc2c(c1)O[C@H](CN(C)C(=O)C1CCOCC1)[C@@H](C)CN([C@H](C)CO)S2(=O)=O
2.2	-0.4	-0.4	C[C@H]1CN([C@@H](C)CO)S(=O)(=O)c2ccc(C3=CCCC3)cc2O[C@H]1CN(C)C(=O)c1cccnc1
1.0	-6.0	3.9	COc1ccc(S(=O)(=O)Nc2ccc3c(c2)C(=O)N([C@@H](C)CO)C[C@H](C)[C@@H](CN(C)Cc2ccccc2)OCCCC[C@H](C)O3)cc1
3.4	8.0	-1.9	Cn1cnc(S(=O)(=O)N2CCCCC2c2cc(C(=O)NCc3ccc(F)cc3)no2)c1 (stereo unspecified)
-10.5	-21.0	-4.9	C[C@H]1CN([C@@H](C)CO)S(=O)(=O)c2ccc(Br)cc2O[C@@H]1CN(C)Cc1cccnc1
1.8	0.2	-0.9	CCC(=O)N1[C@H](CO)[C@@H](c2ccccc2)[C@@H]1CN(C)C(=O)CN1CCOCC1
5.4&3.0	13.4&8.5	2.7&-1.0	COc1cccc(S(=O)(=O)N2[C@@H]3CNC[C@H]2C3c2ccc(-c3cccc(C(=O)N(C)C)c3)cc2)c1 (stereo partly specified)
1.6	8.8	-1.7	C[C@@H]1CN([C@H](C)CO)C(=O)c2cc(C3=CCCC3)cnc2O[C@H]1CN(C)C(=O)c1cccnc1
2.0	8.3	-1.6	CCOC(=O)C1=NN2C(O)C3(C)CC(C(=O)OCC)=NN3C(O)C2(C)C1 (stereo unspecified)
1.8	4.4	-0.3	CO[C@H]1CN(C)C(=O)c2cc(NC(=O)C3CCOCC3)ccc2OC[C@@H](C)NC[C@H]1C
-3.4	-9.9	9.8	COc1ccc2c3c(n(C)c2c1)[C@@H](CO)N(C(=O)Cc1ccccc1)CC31CN(C(=O)Cc2ccccc2)C1
3.4	0.3	-1.4	Cc1ccc(-c2cnc3c(c2)C(=O)N([C@H](C)CO)C[C@H](C)[C@H](CN(C)C(=O)CN(C)C)O3)cc1
3.1	8.3	-2.7	CN(C)C(=O)C[C@H]1CC[C@@H]2[C@H](COC[C@@H](O)CN2S(=O)(=O)c2ccccc2)O1
-8.3	-2.5	4.5	Cc1ccccc1S(=O)(=O)NC(=O)C1(C)CCN1C(=O)C1(c2ccc(Cl)cc2)CCC1 (stereo unspecified)
-3.4	-11.6	3.9	CO[C@@H]1CN(C)C(=O)c2ccc(NS(=O)(=O)c3cccc(F)c3)cc2OC[C@@H](C)N(Cc2cc(F)ccc2F)C[C@@H]1C
3.8	3.1	-1.7	O=C(C[C@H]1CC[C@H](NC(=O)CN2CCOCC2)[C@H](CO)O1)NC1CCC1
0.9	3.0	-5.9	COc1ccccc1CNC(=O)C[C@H]1CC[C@@H]2[C@H](COC[C@@H](O)CN2C(=O)Nc2ccccc2)O1
0.8	12.8	-2.8	COc1ccc2c3c(n(C)c2c1)[C@@H](CO)N(C(=O)c1ccccn1)CC31CN(C(C)=O)C1
0.5	-0.3	-0.7	Cc1noc(C)c1NC(=O)N[C@H]1CC[C@@H](CC(=O)Nc2ccccc2)O[C@@H]1CO
2.2	4.3	-1.0	COc1ccc(CN(C)C[C@@H]2Oc3c(NC(=O)Nc4c(C)noc4C)cccc3C(=O)N([C@@H](C)CO)C[C@@H]2C)cc1
2.4	8.7	-4.3	C[C@H]1CN([C@@H](C)CO)C(=O)c2ccccc2-c2ccccc2CO[C@@H]1CN(C)S(C)(=O)=O
8.4	7.9	-1.9	Cc1cn([C@H]2C[C@H](O)[C@@H](/C=C/C(=O)NCCc3cccnc3)O2)c(=O)[nH]c1=O
4.2	7.7	-5.6	COCC#Cc1cnc2c(c1)C(=O)N([C@@H](C)CO)C[C@@H](C)[C@H](CN(C)C(=O)Nc1cccc(F)c1)O2
0.8	0.4	-1.2	C[C@H](CO)N1C[C@H](C)[C@@H](CN(C)C(=O)Nc2ccccc2)Oc2ccc(NS(=O)(=O)c3cccs3)cc2C1=O

Next part:
Ecoli rRNA inh	Ecoli rRNA inh OD600	Ecoli rRNA inh RFP	SMILES
4.2	4.7	0.7	CC(C)NC(=O)N(C)C[C@H]1Oc2ccc(NC(=O)CCCN(C)C)cc2C(=O)N([C@@H](C)CO)C[C@@H]1C
-6.9	1.5	0.5	C[C@H]1CN([C@@H](C)CO)C(=O)c2c(c3ccccc3n2C)-c2ccccc2CO[C@H]1CN(C)S(=O)(=O)c1ccsc1
21.4	10.2	4.7	COc1ccc(C2=Nc3ccccc3N(C(=O)c3ccc(C)cc3)C2C(=O)Nc2c(C)cccc2C)cc1 (stereo unspecified)
-2.3	-5.0	1.1	O=C(COC(=O)c1cccc(Br)c1)Nc1cccc(S(=O)(=O)N2CCCCC2)c1
-1.3	2.6	0.6	COc1ccccc1-c1ccc([C@H]2[C@@H](CO)N(C(C)=O)[C@@H]2CN(C)C(C)=O)cc1
-2.1&-0.3	3.8&-0.8	-5.5&-2.0	N#Cc1cccc(-c2ccc(C3[C@@H]4CN(C(=O)c5ccccn5)C[C@H]3N4)cc2)c1 (stereo partly specified)
0.0	0.4	-3.4	O=C(C[C@H]1CC[C@H]2[C@@H](COC[C@@H](O)CN2CCC(F)(F)F)O1)NCC1CCCCC1
8.4	2.0	-1.5	CC1(C(=O)NS(=O)(=O)c2cccc(OC(F)F)c2)CCN1C(=O)COc1ccc(Cl)cc1 (stereo unspecified)
-2.1	-3.6	-0.7	CO[C@H]1CN(C)C(=O)c2ccc(NS(=O)(=O)c3cccc(F)c3)cc2OC[C@H](C)N(Cc2cc(F)ccc2F)C[C@@H]1C
0.4	0.2	-0.4	N#C[C@H]1[C@@H](c2ccc(C#Cc3cccc(F)c3)cc2)[C@@H](CO)N1C(=O)C1CC1
-5.0	-11.2	0.6	COc1ccc(S(=O)(=O)Nc2ccc3c(c2)C(=O)N([C@@H](C)CO)C[C@@H](C)[C@H](CN(C)S(=O)(=O)c2ccc(Cl)cc2)O3)cc1
2.7	9.3	-3.0	Cc1noc(C)c1NC(=O)Nc1ccc2c(c1)CC(=O)N([C@@H](C)CO)C[C@@H](C)[C@@H](CN(C)CC1CC1)O2
17.4	8.2	0.1	COC(=O)[C@H]1C[C@@]2(O)CN(S(=O)(=O)c3ccc(C)cc3)C[C@@]2(OC(=O)Nc2c(C)noc2C)C[C@H]1C(=O)OC
5.0	5.5	-1.0	C[C@H](CO)N1C[C@H](C)[C@H](CN(C)C(=O)Nc2ccc(F)cc2)Oc2ccc(NS(=O)(=O)c3ccc(F)cc3)cc2CC1=O
-5.9	5.6	8.5	COc1cc(CNc2nccn3ccnc23)cc(OC)c1
-4.3	-20.7	6.0	C[C@H]1CN([C@@H](C)CO)C(=O)Cc2cc(NS(=O)(=O)c3cccs3)ccc2O[C@H]1CN(C)Cc1ccc2c(c1)OCO2
22.4	19.2	-0.1	CCc1cccc(CC)c1N1C(=O)CSCC1=O
6.0	18.5	-2.4	CO[C@@H]1CN(C)C(=O)c2ccc(NC(=O)C3CCCC3)cc2OC[C@@H](C)NC[C@@H]1C
1.1	-0.1	-1.5	COc1ccc(S(=O)(=O)Nc2cccc3c2O[C@H](CN(C)S(=O)(=O)c2ccc(Cl)cc2)[C@H](C)CN([C@@H](C)CO)C3=O)cc1
1.5	5.8	-2.9	C[C@H](CO)N1C[C@H](C)[C@H](CN(C)Cc2cncnc2)Oc2ncc(-c3cccc(C#N)c3)cc2C1=O
3.0	-1.9	1.3	COc1ccc(NC(=O)Nc2cccc3c2O[C@H](CN(C)S(=O)(=O)c2cn(C)cn2)[C@@H](C)CN([C@@H](C)CO)C3=O)cc1
-5.7	3.4	7.3	CCOC(=O)[C@]12CCC=C1N(Cc1ccc3c(c1)OCO3)C(=O)[C@H](CC(=O)NCc1ccc(C)o1)C2
3.1	14.7	0.2	COc1ccc(C[C@H]2CCc3cnnn3COC[C@H](Cc3ccccc3)NC2=O)cc1
0.0	3.0	-2.1	CCCNC(=O)Nc1ccc2c(c1)OC[C@@H](C)N(C(C)=O)C[C@@H](C)[C@@H](OC)CN(C)C2=O
-43.0	-68.4	-14.9	O=C(c1[nH]c(C(F)(F)F)nc1-c1ccccc1)N1CCN(c2c(Cl)cncc2Cl)CC1
-13.8	-4.2	1.0	COc1ccc(NC(=O)N(C)C[C@@H]2OCCCC[C@@H](C)Oc3ccc(NS(=O)(=O)c4cccs4)cc3C(=O)N([C@@H](C)CO)C[C@H]2C)cc1
-37.8*	-17.9*	3.8*	Cc1ccccc1-c1ccc([C@@H]2[C@@H](CO)N3CCCCN(C(=O)Nc4ccc(F)cc4)C[C@@H]23)cc1
-4.0&-5.7	1.5&-2.8	-0.1&1.1	N#Cc1cccc(-c2ccc(C3[C@@H]4CN(C(=O)Cc5ccccc5)C[C@H]3N4)cc2)c1 (stereo partly specified)
5.0	7.2	1.9	C[C@H](CO)N1C[C@H](C)[C@@H](CN(C)CC2CC2)Oc2ccc(NS(=O)(=O)c3ccccc3)cc2CC1=O
5.3	10.9	0.5	Cc1ccc(S(=O)(=O)Nc2ccc3c(c2)C(=O)N([C@H](C)CO)C[C@H](C)[C@@H](CN(C)C(=O)Nc2ccccc2)O3)cc1

6 of the compounds above, in markdown.
| Structure | Ecoli rRNA inh | Ecoli rRNA inh OD600 | Ecoli rRNA inh RFP |
| --- | --- | --- | --- |
| C[C@H](CO)N1C[C@H](C)[C@H](CN(C)C(=O)Nc2ccc(F)cc2)Oc2ccc(NS(=O)(=O)c3ccc(F)cc3)cc2CC1=O | 5.0 | 5.5 | -1.0 |
| COc1cc(CNc2nccn3ccnc23)cc(OC)c1 | -5.9 | 5.6 | 8.5 |
| C[C@H]1CN([C@@H](C)CO)C(=O)Cc2cc(NS(=O)(=O)c3cccs3)ccc2O[C@H]1CN(C)Cc1ccc2c(c1)OCO2 | -4.3 | -20.7 | 6.0 |
| CCc1cccc(CC)c1N1C(=O)CSCC1=O | 22.4 | 19.2 | -0.1 |
| CO[C@@H]1CN(C)C(=O)c2ccc(NC(=O)C3CCCC3)cc2OC[C@@H](C)NC[C@@H]1C | 6.0 | 18.5 | -2.4 |
| COc1ccc(S(=O)(=O)Nc2cccc3c2O[C@H](CN(C)S(=O)(=O)c2ccc(Cl)cc2)[C@H](C)CN([C@@H](C)CO)C3=O)cc1 | 1.1 | -0.1 | -1.5 |

Next part
Ecoli rRNA inh	Ecoli rRNA inh OD600	Ecoli rRNA inh RFP	SMILES
-48.7	-60.9	0.4	O=C(NC(c1ccc(F)cc1)c1ccc2ccccc2n1)C1CCN(CCOc2ccc(Cl)cc2Cl)CC1 (stereo unspecified)
-1.5	-0.7	-3.2	C[C@@H]1CCCCO[C@@H](CN(C)S(C)(=O)=O)[C@H](C)CN([C@@H](C)CO)C(=O)c2cc(NS(=O)(=O)c3ccc(F)cc3)ccc2O1
5.2	-3.1	0.3	CC(C)CC#Cc1cnc2c(c1)C(=O)N([C@H](C)CO)C[C@H](C)[C@@H](CN(C)C(=O)C1CCCCC1)O2
-2.6	-9.6	0.5	C[C@H](CO)N1C[C@H](C)[C@@H](CN(C)C)Oc2cc(-c3ccccc3F)ccc2S1(=O)=O
-1.7	5.4	-2.6	COc1ccc(NC(=O)Nc2ccc3c(c2)C(=O)N([C@H](C)CO)C[C@H](C)[C@H](CN(C)S(=O)(=O)c2ccc(OC)cc2)OCCCC[C@H](C)O3)cc1
-2.3	2.6	-3.8	COc1ccc2c3c([nH]c2c1)[C@@H](CO)N(C(=O)Cc1ccccn1)CC31CN(Cc2ccccn2)C1
-0.6	6.4	1.3	COc1ccc(S(=O)(=O)Nc2ccc3c(c2)C(=O)N([C@@H](C)CO)C[C@H](C)[C@H](CN(C)C(=O)Nc2ccccc2)OCCCC[C@@H](C)O3)cc1
4.2	12.1	1.5	C[C@@H]1CN([C@H](C)CO)C(=O)c2cccc(NC(=O)Nc3ccc(C(F)(F)F)cc3)c2O[C@@H]1CN(C)C
3.2	4.0	-1.7	CC(=O)N[C@@H]1C=C[C@H](CC(=O)NCc2ccc(Cl)cc2)O[C@@H]1CO
3.0	9.6	-1.3	C[C@H](CO)N1C[C@H](C)[C@H](CN(C)C(=O)Nc2ccc3c(c2)OCO3)OCCCC[C@H](C)Oc2ccc(NC(=O)Nc3ccc(F)cc3)cc2C1=O
-53.3	-80.1	-17.4	OC(c1ccc(Cl)c(Cl)c1)c1ncc(-c2ccc(C(F)(F)F)cc2)[nH]1 (stereo unspecified)
3.8	1.2	-0.1	CCC(=O)N(C)C[C@@H]1Oc2ncc(C#CCc3ccccc3)cc2C(=O)N([C@H](C)CO)C[C@@H]1C
-55.1	-78.2	-18.1	CC(C)Nc1nc(Nc2ccccc2Cl)c2sccc2n1
-0.7	8.7	-3.8	C[C@H]1CN([C@@H](C)CO)C(=O)c2c(c3ccccc3n2C)-c2ccccc2CO[C@@H]1CN(C)S(C)(=O)=O
1.0	4.7	-2.7	CCS(=O)(=O)Nc1ccc2c(c1)C(=O)N(C)[C@H]1CC[C@H](CC(=O)N[C@H]3CCN(Cc4ccccc4)C3)O[C@H]1CO2

Bioassay records (PubChem BioAssay)
